# RecA intein inh: blocks M. tuberculosis RecA intein splicing; P9WHJ3; cell-free RecA intein splicing, fluorescence; inhibition, %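 (about 9 µM by stock and volumes)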; hit rate 0.75% among 290,000; AID 2221; in the data active means inhibition above about 30%; inconclusive means no clear call, values can overlap the other calls;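 further: 0% = vehicle wells and 100% = reference inhibitor control wells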
# Target sequence (P9WHJ3 whole entry, looked up): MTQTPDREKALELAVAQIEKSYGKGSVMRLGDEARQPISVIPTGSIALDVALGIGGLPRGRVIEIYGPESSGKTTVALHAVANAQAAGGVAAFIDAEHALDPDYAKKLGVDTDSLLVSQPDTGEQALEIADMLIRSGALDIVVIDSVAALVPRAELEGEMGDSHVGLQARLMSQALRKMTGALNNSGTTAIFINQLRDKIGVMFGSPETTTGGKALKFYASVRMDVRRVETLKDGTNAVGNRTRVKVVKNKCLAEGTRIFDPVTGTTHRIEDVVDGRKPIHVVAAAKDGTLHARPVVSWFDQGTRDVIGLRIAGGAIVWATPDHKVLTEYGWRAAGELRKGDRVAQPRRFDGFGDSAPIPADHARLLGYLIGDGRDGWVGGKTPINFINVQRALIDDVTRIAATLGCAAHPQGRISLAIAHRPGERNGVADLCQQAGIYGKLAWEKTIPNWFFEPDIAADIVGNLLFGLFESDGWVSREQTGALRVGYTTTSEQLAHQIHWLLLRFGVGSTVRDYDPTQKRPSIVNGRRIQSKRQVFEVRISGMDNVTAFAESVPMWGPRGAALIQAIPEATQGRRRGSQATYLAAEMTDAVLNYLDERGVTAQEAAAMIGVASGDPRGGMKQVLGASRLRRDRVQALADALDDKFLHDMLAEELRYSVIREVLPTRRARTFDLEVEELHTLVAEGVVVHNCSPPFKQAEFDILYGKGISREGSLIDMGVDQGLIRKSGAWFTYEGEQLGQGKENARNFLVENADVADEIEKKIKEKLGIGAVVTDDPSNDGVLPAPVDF
# Mtb bLac sens: beta-lactam sensitization of Mtb H37Rv; AID 434955; M. tuberculosis H37Rv growth with meropenem, percent inhibition; hits of this screen are not shown here; inhibition, % at 25 µM; hit rate 0.27% among 330,000;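 active means about 74% or more and at least 40 points above the plate without the antibiotic, then above 30% in a dose series; inconclusive means first-round hits that could not be retested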;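 further: growth measured after seven days incubation then overnight dye step; 0% = bacteria only wells and 100% = bacteria with antibiotic; twin plates without the antibiotic show which effects depend on it; some results filed as inactive read as strong as hits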
# YopH inh: inhibitors of Yersinia enterocolitica YopH tyrosine phosphatase; fluorescence Ex485/Em525; inhibition, %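 (about 10 µM by stock and volumes)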; hit rate 0.16% among 140,000;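 active means inhibition of 50% or more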;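 further: controls were vehicle for no effect and minimum signal wells for full effect; inactives centre near -20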
# Arbovirus anti: antivirals against arbovirus infection; hit rate 0.37% among 200,000; arbovirus infection cell-based antiviral screen; inhibition, % at 10 µM;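 active means inhibition from about 30%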;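 further: bluetongue infection of BSR cells; cell survival read as ATP light after 72 h; 0% = infected wells without compound and 100% = uninfected wells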
# Mtb growth: M. tuberculosis H37Rv growth inhibitors, H37Rv strain (AID 1626); hit rate 0.95% among 220,000; inhibition, % at 10 µM; hits with a dose series show IC50 in µM; M. tuberculosis H37Rv growth inhibition; higher % means a stronger effect;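 active means confirmed in a dose series; inconclusive means inhibition above 80% but not taken into the dose series; inactive means below 80% or under 30% at every dose of the series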;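 further: bacteria incubated seven days before Alamar blue readout; 0% = bacteria only wells and 100% = bacteria with antibiotic wells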
# Arbovirus anti repeat: second read-out of Arbovirus anti, no call of its own (marks repeat the call); inhibition, %; measured here: 10K subset replicate screen; many hits read low in the repeat;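 first of two repeat runs on a subset; 0% = infected and 100% = uninfected wells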
# Active calls of the source: *; u = inconclusive; x = not tested or not shown.
SMILES,RecA intein inh,Mtb bLac sens,YopH inh,Arbovirus anti,Mtb growth,others
CCOc1ccc2nc(NC(=O)CC3Oc4ccccc4NC3=O)sc2c1 (stereo not given),2.0,0,x,x,1%,
COC(=O)c1sccc1Oc1c(Cl)cccc1[N+](=O)[O-],0.1,5,x,7,7%,
CC1CC(C)CN(CCCNC(=O)c2ccc3c(c2)N(Cc2ccccc2)C(=O)c2ccccc2S3=O)C1 (stereo not given),-0.3,8,x,x,x,
COc1ccccc1NC(=O)Nc1ccc(C)cn1,2.4,-3,x,x,x,
NC(=O)NC(CC(=O)NCCCc1ccccc1)c1ccc(Cl)cc1 (stereo not given),0.2,-3,x,x,x,
Cc1ccc(S(=O)(=O)N/N=C2/CCCCC2C2CCCCC2)cc1[N+](=O)[O-] (stereo not given),-0.2,-5,-14,11,2%,
Cc1nn2c(-c3cccc(NC(=O)CN4CCOCC4)c3)nnc2c2ccccc12,0.5,4,-40,x,6%,
Cc1cccn2c(CNCC3(c4ccccc4)CCCC3)c(C(=O)N3CCOCC3)nc12,1.6,-3,x,25,-1%,
Cc1noc(C)c1C(=O)N1CCN(c2cccc(Cl)c2)CC1,0.8,3,x,19,3%,
Cc1ccc(C2=[N+]([O-])C3(CCCCC3=O)N(O)C2(C)C)cc1 (stereo not given),-2.3,1,-18,3,-3%,
CSc1nc2ccc(NC(=O)c3ccccn3)cc2s1,2.4,-2,x,x,x,
Cc1ccc(NC(=O)NC(=O)CN2C(=O)NC3(CCCCCCC3)C2=O)c(C)c1,2.5,-7,11,-4,-1%,
CCn1c(CNc2ccc(Cl)cc2)nnc1SCC(=O)NCc1ccccc1,0.5,-1,-34,-9,0%,
COC(=O)/C=C/C(=O)N1CCN(c2cccc(Cl)c2)CC1,0.7,5,-11,2,1%,
O=C(O)COc1ccccc1/C=N/NC(=O)COc1ccc(-c2ccccc2)cc1,4.5,3,x,x,2%,
N#CCSc1nnc(C2CCCCC2)n1-c1ccccc1,2.7,3,-29,3,-19%,
O=[N+]([O-])c1ccc2nc(-c3ccc(Cl)cc3)[nH]c2c1,13,2,-31,-13,18%,
Cc1cccc(N2CC(C(=O)Nc3nnc(SCCC4OCCO4)s3)CC2=O)c1 (stereo not given),1.3,8,x,x,x,
Cc1cc(C)cc(C(=O)NC(CC(N)=O)c2ccc(NCCN3CCOCC3)c([N+](=O)[O-])c2)c1 (stereo not given),-1.7,4,x,x,x,
COc1ccc(OC)c(CN2CCC(CO)(CCOc3ccccc3)CC2)c1,0.0,4,x,1,4%,
CSc1nc2nc(C)cc(-c3ccccc3)n2n1,0.7,-17,-43,0,-14%,
OC1C=CSc2nc3ccccc3n21 (stereo not given),-0.6,-1,3,7,5%,
COc1ccc(C)cc1NS(=O)(=O)c1ccc(-c2cnc(C3CC3)o2)cc1,0.9,4,x,x,x,
Cc1cccc(NC(=O)C(=O)C2C(=O)Nc3ccccc32)c1 (stereo not given),-2.0,-14,x,x,7%,
O=C(O)C1Oc2cc3ccccc3cc2O1,0.1,-1,x,x,x,
O=[N+]([O-])c1ccc(S(=O)(=O)N2CCN(C3CCN(Cc4ccccc4)CC3)CC2)cc1,1.6,3,x,x,x,
O=c1[nH]c(=O)n(C2CCCCC2)c(O)c1C=NCCCn1ccnc1,0.2,-7,-38,3,-5%,
CCCCn1c(N)c(N(CCC(C)C)C(=O)c2ccc([N+](=O)[O-])o2)c(=O)[nH]c1=O,-59,-7,x,x,x,
S=C(Nc1ccc(Cl)cc1)NC1CC2CCCC(C1)N2C1CC1 (stereo not given),-0.5,2,3,-22,-1%,
CC1(C(=O)N(CC(=O)NC2CCCC2)C2CCCC2)CC(=O)N=C2C=CC=CN21 (stereo not given),-2.6,-2,-48,6,4%,
CC(OC(=O)c1nc(Cl)ccc1Cl)C(=O)Nc1ccccc1F (stereo not given),3.8,-4,x,x,x,
CCN1/C(=C\C(C)=O)Sc2ccc(OC)cc21,-1.8,-3,-9,2,-5%,
CCNc1nc(NOC)nc(OCC#N)n1,-0.8,0,-33,-1,-5%,
O=C(O)CN1C(=O)c2cccc(Oc3ccc(Cl)cc3)c2C1=O,0.7,2,-14,4,-9%,
COc1ccc(N=Nc2ccc(CO)cc2)cc1,0.6,6,x,x,x,
COC(=O)c1ccc(C(=O)OC)c(NC(=S)N2CCCC2)c1,-2.3,-1,x,x,x,
CC(C)(C)NC(=O)CSc1nc2ccc(NC(=O)CSc3nnnn3Cc3ccccc3)cc2s1,2.4,1,5,18,-13%,
Oc1c(C(c2cccc(F)c2)N2CCN(Cc3ccccc3)CC2)sc2ncnn12 (stereo not given),-0.5,-11,-35,10,-1%,Arbovirus anti repeat=7
CCc1cc2c(=O)[nH]c(-c3ccccn3)nc2s1,-1.4,92,-37,-34,u,
CN1CCc2c(sc(NC(=O)Cc3ccccc3)c2C(N)=O)C1,-23,0,x,x,x,
Cc1ccc(-n2c(C)cc(C(=O)COc3c(CO)cc(F)cc3CO)c2C)cc1C,13,-3,0,-30,9%,
CC(=O)NC(Cc1ccccc1C)C(=O)NC1CCN(C(=O)c2cccc(C)c2)CC1 (stereo not given),11,-4,x,1,-1%,
Cc1noc(C)c1C(=O)NCCc1c(C)[nH]c2ccccc12,0.7,-7,x,x,x,
COc1ccc2c(C)c(CC(=O)N3C[C@H]4C[C@@H](C3)c3cccc(=O)n3C4)c(=O)oc2c1,1.0,2,x,x,x,
Cc1ccccc1-c1noc(N)c1C#N,13,74,7,2,3%,
Cc1cccc(N2CCN(c3ccc(NC(=O)/C=C\C(=O)O)cc3)CC2)c1,2.2,10,x,-5,-3%,
COC(=O)c1nc2ccc(C)cn2c1F,0.0,-7,-39,-1,5%,
Cc1ccccc1NC(=O)N1CCN(c2ncccn2)CC1,-2.4,2,x,5,5%,
CCCCNC(=O)CN1C(=O)NC2(CCCc3ccccc32)C1=O (stereo not given),0.3,x,13,8,-5%,
COc1c(Cl)cnn(-c2ccc(Cl)c(Cl)c2)c1=O,9.2,2,x,-28,5%,
Cn1c(Cn2nnc3ccccc32)nnc1SCC(=O)c1ccc(F)cc1,-0.1,1,-25,-2,-3%,
COc1ccc(NC(=O)CNC(=O)Cn2c(C)cc3ccccc3c2=O)cc1OC,-6.5,17,x,21,3%,
CCC(C(=O)Nc1ccon1)c1ccccc1 (stereo not given),0.9,9,x,x,x,
CCN(CC1COc2ccccc2O1)C(=S)Nc1ccccc1 (stereo not given),3.4,-8,-36,4,-2%,
N#Cc1nc(COc2ccc(Br)cc2)oc1NCCN1CCOCC1,1.7,u,-39,-5,1%,
COc1cc(C2N(C)CCC3(OCCO3)C2(C)C)cc(OC)c1OC (stereo not given),-2.2,-2,-18,4,-6%,
CCCN1CN(c2ccccc2)C(=S)N(c2ccccc2)C1,0.4,-4,x,x,-4%,
CC(C)C(OC(=O)c1nsc(Cl)c1Cl)C(=O)NC(C)(C)C (stereo not given),1.3,1,x,6,6%,
c1ccc(-c2nnnc3ccccc23)cc1,8.7,7,-3,-5,-1%,
CC(CN1CCCC1)OC(=O)c1ccc(Cl)cc1 (stereo not given),21,-5,x,x,x,

# Brought forward from above: five entries, then new ones.
SMILES,RecA intein inh,Mtb bLac sens,YopH inh,Arbovirus anti,Mtb growth,others
COc1cc(C2N(C)CCC3(OCCO3)C2(C)C)cc(OC)c1OC (stereo not given),-2.2,-2,-18,4,-6%,
CCCN1CN(c2ccccc2)C(=S)N(c2ccccc2)C1,0.4,-4,x,x,-4%,
CC(C)C(OC(=O)c1nsc(Cl)c1Cl)C(=O)NC(C)(C)C (stereo not given),1.3,1,x,6,6%,
c1ccc(-c2nnnc3ccccc23)cc1,8.7,7,-3,-5,-1%,
CC(CN1CCCC1)OC(=O)c1ccc(Cl)cc1 (stereo not given),21,-5,x,x,x,
NC(=O)c1c(NC(=O)CN2C(=O)CCC2=O)sc2c1CCCCC2,-8.3,-5,-17,9,-4%,
COc1cccc(NC(=O)c2cc(OC)c(OC)c(OC)c2Br)c1,-0.3,-8,-24,4,4%,
CCOc1ccccc1OCCCC(=O)N(C)CC(=O)Nc1cc(C)ccc1C,-6.0,-7,x,-5,2%,
CC(C)c1cccc(C(C)C)c1NC(=O)c1ccc(OCC(=O)NCc2ccccc2)cc1,2.6,-13,-23,-19,5%,
COC(=O)CSc1nc2c(c(-c3ccc(C)o3)c1C#N)CCCC2,-6.2,100,-5,1,2.7µM*,
COC(=O)C1=C(C)N(C(C)C)C(=O)C1(NC(C)=O)C(F)(F)F (stereo not given),-0.4,-3,-2,-1,1%,
CCOc1ccc(NC(=O)c2sccc2-n2cccc2)cc1,-2.6,21,x,0,6%,
Cc1cccc(C(=O)NCCC(=O)Nc2nc(C)c(Cc3ccc4c(c3)OCO4)s2)c1,-1.5,-4,0,-1,-3%,
O=C(CSc1ccsc1[N+](=O)[O-])NCc1ccccc1,1.8,-2,x,-4,0%,
CN(CC(=O)Nc1ccc(N2CCOCC2)cc1)C(=O)c1cc(F)c(F)cc1Cl,-1.6,1,x,x,x,
COC(=O)C1C(=O)OC(C)(C)C1C(C)C(=O)c1ccccc1 (stereo not given),-3.3,7,-12,7,-1%,
COc1ccc(NS(=O)(=O)c2ccc3c(c2)N(C(C)=O)CCS3)cc1,-4.1,-1,x,x,x,
COc1ccccc1NC(=O)COC(=O)C1CC1,x,38,x,5,6%,
O=C(COc1ccc2c3c(c(=O)oc2c1)CCC3)NCC1CCC(C(=O)O)CC1 (stereo not given),-0.5,-1,x,x,x,
N#Cc1c(SCC(=O)OCc2ccccc2)nsc1SCC(=O)OCc1ccccc1,3.4,17,-9,-2,2%,
Oc1ccc(N2CCN(C(c3ccncc3)c3nnnn3C3CCCC3)CC2)cc1 (stereo not given),-1.0,10,-29,2,-3%,
Cc1ccc(N(C(=O)Cc2cccs2)C(C(=O)NC2CCCCC2)c2ccccn2)cc1C (stereo not given),7.0,1,-32,-27,5%,
COc1cc2c(cc1OC)C(C(=O)N1CCOCC1)C(c1cccs1)N(C)C2=O (stereo not given),-3.7,u,-33,-5,0%,
COc1ccc(NC(=O)N2Cc3ccccc3CC2C(=O)NC(C)(C)C)cc1 (stereo not given),0.0,-3,-39,-1,2%,
CCOc1ccccc1NS(=O)(=O)c1cc2c3c(c1)CC(=O)N3CCC2,2.2,4,x,x,x,

# Random excerpt: four records from the list, in no set order.
SMILES,RecA intein inh,Mtb bLac sens,YopH inh,Arbovirus anti,Mtb growth,others
Oc1ccc(N2CCN(C(c3ccncc3)c3nnnn3C3CCCC3)CC2)cc1 (stereo not given),-1.0,10,-29,2,-3%,
CC1(C(=O)N(CC(=O)NC2CCCC2)C2CCCC2)CC(=O)N=C2C=CC=CN21 (stereo not given),-2.6,-2,-48,6,4%,
COC(=O)c1nc2ccc(C)cn2c1F,0.0,-7,-39,-1,5%,
Cc1cccc(N2CCN(c3ccc(NC(=O)/C=C\C(=O)O)cc3)CC2)c1,2.2,10,x,-5,-3%,

# Next section:
SMILES,RecA intein inh,Mtb bLac sens,YopH inh,Arbovirus anti,Mtb growth,others
Cc1ccc(-c2csc(Nc3ccccn3)n2)cc1,-7.7,7,x,x,x,
COc1ccc(NC(=O)/C=C/c2ccccc2)cn1,2.2,2,-46,0,7%,
O=C(Nc1nnc(C2CCCCC2)s1)C1CC(=O)N(c2ccccc2)C1 (stereo not given),-1.7,3,x,x,x,
COc1cccc2[nH]c3c(N4CCC(C(N)=O)CC4)ncnc3c12,-5.7,5,-50,-5,-2%,
COc1ccc(OC2C(=O)N(CCc3ccc(OC)c(OC)c3)C2c2ccc3c(c2)OCO3)cc1 (stereo not given),0.3,-14,-11,-3,7%,
COc1cccc(OCc2cc(C(=O)N3CCN(C(=O)c4ccco4)CC3)no2)c1,2.0,1,x,x,x,
CCOC(=O)CSc1nnc(NC(=O)CCc2ccccc2)s1,3.3,86,x,x,x,
O=C(CSc1nnc(NC(=O)C2CC2)s1)Nc1ccc2c(c1)OCCO2,-0.5,14,x,0,-3%,
CC(=O)O[C@H]1C(=O)[C@@]2(C)[C@H]([C@H](OC(=O)c3ccccc3)[C@]3(O)C[C@H](OC(=O)[C@H](O)C(NC(=O)c4ccccc4)c4ccccc4)C(C)=C1C3(C)C)[C@]1(OC(C)=O)CO[C@@H]1C[C@@H]2O (stereo not given in full),6.1,-2,x,x,6%,
Cc1ccc(C(c2nnnn2Cc2cccs2)N2CCN(Cc3ccc4c(c3)OCO4)CC2)cc1 (stereo not given),2.7,88,-36,0,62%,
CCCc1nnc(SCC(=O)N2CCOCC2)n1CCCOC,x,-8,-67,8,-2%,

# Ordered by number of heavy atoms (falling): part of the list above.
SMILES,RecA intein inh,Mtb bLac sens,YopH inh,Arbovirus anti,Mtb growth,others
CCCCNC(=O)CN1C(=O)NC2(CCCc3ccccc32)C1=O (stereo not given),0.3,x,13,8,-5%,
Cc1noc(C)c1C(=O)N1CCN(c2cccc(Cl)c2)CC1,0.8,3,x,19,3%,
COc1ccccc1NC(=O)COC(=O)C1CC1,x,38,x,5,6%,

# Screens deposited in PubChem BioAssay by several laboratories.

# This is a subset, so the mix of outcomes need not match the whole.
